Compound activity deposited in PubChem BioAssay by National Center for Advancing Translational Sciences (NCATS).
CtBP-E1A inh – qHTS Assay for Inhibitors of the CtBP/E1A Interaction; CtBP / adenovirus E1A interaction (AlphaScreen); AlphaScreen GST-E1A/His-CtBP binding, 1536-well; stronger effect = lower value; control for the full effect not named in the record; activity change, % (test concentration not listed); 340,000 compounds, 0.49% hits; AID 651724, 2012; in the data active means activity change below about -65%; inconclusive means about -30% to -65%; inactive means above about -30%; note: % is set by controls: 0 for no effect and ±100 for the full control effect
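AlphaScreen with 125 nM GST-E1A and 125 nM His-CtBP (5X stocks) in Tris pH 8.0, 300 mM NaCl, BSA, Tween 20, TCEP. Compounds preincubated 2 h at 37 deg C, then glutathione donor/nickel acceptor beads added for 1 h at 37 deg C in dark.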
ClpP mod – qHTS Assay for Activators of ClpP. purified B. subtilis ClpP, FRET peptide cleavage, 20 min. Potency, µM (top dose mostly 57.5 µM), inactives show at the top dose activity change, negative = active. 340,000 compounds, 1.9% hits; active = well fitted falling curve with a large enough effect; inconclusive = small, poorly fitted or top-dose-only effect; inactive = no such curve, though single readings can be large or run the other way; note: potency is the fitted concentration of half-maximal effect; the source files actives as falling curves though it sought activators and does not explain the sign; nearly all actives have a fitted effect of over 65% in size; many hits overshoot -100%
Target sequence (P80244 whole entry, looked up): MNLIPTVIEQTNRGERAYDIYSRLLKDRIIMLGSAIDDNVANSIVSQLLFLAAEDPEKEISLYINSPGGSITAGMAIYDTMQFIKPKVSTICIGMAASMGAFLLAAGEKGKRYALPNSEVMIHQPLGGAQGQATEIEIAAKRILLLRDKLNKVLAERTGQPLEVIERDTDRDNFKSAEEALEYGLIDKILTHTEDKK
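Purified B. subtilis ClpP, 10 microg/mL final in Tris/HCl pH8 with KCl, BSA, glycerol and Tween-20, cleaved an Abz/nitrotyrosine-quenched decapeptide. Fluorescence (ex 320, em 430) was read at 0 and 20 min at room temperature. Delta was normalized to 5.8 microM ADEP and DMSO/no-enzyme controls.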
Menin MLL FP FL – qHTS Assay for Inhibitors Targeting the Menin-MLL Interaction in MLL Related Leukemias: Competition With Fluorescein Labeled MLL-derived Peptide; 290,000 tested, under 10 active; Fluorescence polarization, fluorescein-MLL peptide displacement from menin; FP activity change, % at 61.4 µM; AID 1766, 2009; inconclusive = falling polarisation curve, or a change in total fluorescence; inactive = total fluorescence flat and polarisation flat or rising; no compound was filed as active; the % refers to the polarisation; negative = inhibition;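 note: % of control where 0% means no effect; inhibitors lower the polarisation; unlabelled MLL peptide was the positive control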
Sfp inh – qHTS Assay for Inhibitors of Bacillus subtilis Sfp phosphopantetheinyl transferase (PPTase); 4'-phosphopantetheinyl transferase ffp (Bacillus subtilis), Q9F4F7; Biochemical Sfp PPTase activity, qHTS; Potency, µM, inactives show max response, negative = inhibition, actives largely listed as inhibitors; 310,000 compounds, 3.5% hits; AID 1490, 2009; active = well fitted inhibition curve with a large enough effect; inconclusive = small, poorly fitted or top-dose-only effect, or another doubt; inactive = no such curve, though single readings can be large or run the other way;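 note: the enzyme is Sfp with the accession as filed and its product quenches rhodamine fluorescence; potency is the fitted concentration of half-maximal effect; 0% = enzyme reaction without inhibitor and -100% = no enzyme wells; top concentration of the series not given in the record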
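Reaction rates are the 30-min fluorescence difference (ex 525, em 598 nm) in wells containing 15 nM Sfp, 5 uM rhodamine-CoA and 12.5 uM BHQ-2-YbbR at pH 7.6 with 10 mM MgCl2.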
gsp antagonist – qHTS for Antagonists of gsp, the Etiologic Mutation Responsible for Fibrous Dysplasia/McCune-Albright Syndrome: qHTS; AID 624288, 2012; 340,000 compounds, 0.4% hits; gsp-mutant cells, cAMP HTRF, 30 min; control for the full effect not named in the record; Potency, µM (top dose mostly 76.9 µM), without a hit: at the highest dose activity change, negative = inhibition, hits mostly inhibitors; active = falling curve of any shape with a large fitted effect; inconclusive = falling curve, mostly with a smaller effect; inactive = flat or rising curve; cell line not stated here;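 note: intracellular cAMP measured with PDE inhibitor Ro 20-1724 present during compound exposure; potency is the fitted concentration of half-maximal effect; % is set by controls: 0 for no effect and ±100 for the full control effect; nearly all actives have a fitted effect of over 65% in size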
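HTRF cAMP measurement after 30 min RT detection following 30 min, 37C compound treatment alongside […] (added as 300 uM solution) in G418-selected cells seeded at 2000/well and grown 16–24 h.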
TRPV1 potentiator – HTS Assay for Compounds that Act as Potentiators of the Vanilloid Receptor 1. Transient receptor potential cation channel subfamily V member 1 (Homo sapiens), Q8NER1. TRPV1-expressing cells, Fluo-8 calcium influx, capsaicin EC20 potentiation; host cell line not named in the record; control for the full effect not named in the record. potentiation, % at 8.33 µM. 320,000 compounds, 0.02% hits. AID 540277, 2011; active means potentiation above 80%; inconclusive means 30% to 80%; inactive means below 30%; note: 0% is about no effect
Target sequence (Q8NER1 whole entry, looked up): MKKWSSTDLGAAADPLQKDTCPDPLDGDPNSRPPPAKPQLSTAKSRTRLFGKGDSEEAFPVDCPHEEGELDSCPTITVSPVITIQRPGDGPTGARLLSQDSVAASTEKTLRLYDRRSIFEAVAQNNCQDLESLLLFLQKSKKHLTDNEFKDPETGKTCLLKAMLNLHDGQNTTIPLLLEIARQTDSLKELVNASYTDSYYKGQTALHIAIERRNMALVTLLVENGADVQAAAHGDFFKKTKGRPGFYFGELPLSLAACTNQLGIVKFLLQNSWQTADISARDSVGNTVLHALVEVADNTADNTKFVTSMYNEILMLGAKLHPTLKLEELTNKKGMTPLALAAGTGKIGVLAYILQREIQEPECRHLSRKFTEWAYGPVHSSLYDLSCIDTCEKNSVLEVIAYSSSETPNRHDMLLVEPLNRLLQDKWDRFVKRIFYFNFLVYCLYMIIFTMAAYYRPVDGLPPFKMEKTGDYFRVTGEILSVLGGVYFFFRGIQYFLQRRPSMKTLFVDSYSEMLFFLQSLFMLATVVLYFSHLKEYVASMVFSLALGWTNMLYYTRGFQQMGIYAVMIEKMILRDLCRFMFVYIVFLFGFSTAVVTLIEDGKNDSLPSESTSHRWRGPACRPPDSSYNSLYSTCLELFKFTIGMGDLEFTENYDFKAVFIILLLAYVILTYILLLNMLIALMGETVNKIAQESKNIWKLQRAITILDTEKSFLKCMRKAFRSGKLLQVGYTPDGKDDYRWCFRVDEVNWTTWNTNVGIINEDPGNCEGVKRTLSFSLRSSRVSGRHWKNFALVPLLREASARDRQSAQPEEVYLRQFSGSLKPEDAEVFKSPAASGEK
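Fluo-8 calcium influx in TRPV1-expressing cells, kinetic read (ex 480/em 520 nm). Compound added and read 3 min for agonist activity, followed by capsaicin at EC20 final and 2 min further read for enhancement.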
gsp agonist – qHTS for Agonist of gsp, the Etiologic Mutation Responsible for Fibrous Dysplasia/McCune-Albright Syndrome: qHTS. gsp mutant cells, cAMP HTRF, 30 min; control for the full effect not named in the record. Potency, µM (series often up to 76.9 µM), without a hit: at the highest dose activation (cAMP increase), most hits filed as activators. 340,000 compounds, 0.13% hits; active = well fitted activation curve with a large enough effect; inconclusive = small, poorly fitted or top-dose-only effect, or another doubt; inactive = no such curve, though single readings can be large or run the other way; cell line not stated here;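 note: phosphodiesterase inhibitor Ro 20-1724 added with compounds to block cAMP breakdown; potency is the fitted concentration of half-maximal effect; nearly all actives have a fitted effect of over 60% in size; about a fifth of the inactives were tested at one dose only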
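Cells stably selected in G418 were plated at 2000/well, grown 16-24 hr, then given compounds in DMSO with the PDE inhibitor […] (300 uM solution added) for 30 min at 37C; cAMP was read by HTRF.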
An asterisk follows results filed as active; ? = inconclusive; . = no result given; & = joins results of further samples; [ ] = remark or other dose.

SMILES	CtBP-E1A inh	ClpP mod	Menin MLL FP FL	Sfp inh	gsp antagonist	TRPV1 potentiator	gsp agonist
CCCCCCCCCCCCN1[C@@H](CC(C)=O)c2cc(F)ccc2S1(=O)=O	16	0.8%	.	.	4%	.	.
O=C(CSc1nnc2ccc(-c3ccccn3)nn12)NCC1CCCO1 (stereo not drawn)	-9	-3.5%	1.0	24%	-10%	7	7.9µM*
COc1ccccc1NC(=O)CCN1C(=O)C2CC=CCC2C1=O (stereo not drawn)	-1	0.0%	-4.3	17%	8%	6	7%
CCCCn1c(N)c(N(CCOC)C(=O)CSc2ccccc2C)c(=O)[nH]c1=O	-1	-0.4%	.	.	6%	8	-2%[15.4 µM]
COc1ccc(N=CC2=C(O)c3ccccc3C2=O)c(OC)c1	-1	-0.3%	2.1	9%	-5%[15.4 µM]	4	-27%
C#CCOCCOCCOCCNc1nc(N2CCN(C(=O)[C@H](CO)n3cc([C@@H](N)C(C)C)nn3)CC2)nc(N2CCN(C(=O)[C@H](CCCCN)n3cc([C@@H](N)[C@H](C)CC)nn3)CC2)n1	-10	-1.5%	.	.	11%	.	-9%
CCOc1ccc(C(=O)OCC(=O)NC2CCCC2)cc1OCC	-1	-0.1%	-5.4	4%	4%	1	26%[15.4 µM]
CCCCOc1nc2ccccc2nc1C(C#N)S(=O)(=O)c1ccccc1 (stereo not drawn)	11	11%	5.9	6%	-30%	-12	-33%[inhibitor]
Cc1ccc2occ(C(c3nnnn3Cc3ccccc3)N3CCOCC3)c(=O)c2c1 (stereo not drawn)	5	0.2%	5.1	-5%	-5%	-14	-12%
Cc1ccc(Cn2ccc(C3CC3)n2)cc1	10	-0.3%	3.8	15%	5%	?	?
CN(C)/C=C/C(=O)c1cc(N2CCOCC2)ccc1[N+](=O)[O-]	-9	.	1.7	8%	9%	17	-3%[15.4 µM]
COc1ccc(C(=S)N2CCCCCC2)cc1	-2	-3.7%	1.0	-1%	-3%	25	-55%[inhibitor]
O=C(N/N=C/c1ccc(-c2ccccc2)o1)c1ccccc1O	-7	.	10	9%	-13%	.	?
Cc1cc(Cl)ccc1OCC(=O)NC(=S)Nc1ccc(Cl)cn1	3	4.6%	.	-9%	15%	8	?
O=C(COc1ccccc1)NC1CCCc2ccccc21 (stereo not drawn)	4	0.6%	7.9	6%	7%	4	0%[15.4 µM]
O=c1c2c(-c3cccs3)csc2[nH]c(=S)n1-c1ccccc1	-4	-11%	8.8	5%	-11%	-7	?
C=CCc1c(C)nc(C)nc1N/N=C/c1ccc(F)cc1	3	-28%	4.2	10%	-8%	-3	-37%[inhibitor]
COc1ccc(OC)c(NS(=O)(=O)c2cc3c4c(c2)CCN4C(=O)CC3)c1	1	0.9%	.	.	3%	8	1%[15.4 µM]
Nc1c(Cl)c(Cl)nc(C(=O)OCC(=O)N2CCCC2=O)c1Cl	-3	-4.7%	.	.	5%	3	-44%[inhibitor]
CCCCn1c(-c2cccnc2)nc2cc3[nH]c(=O)c(C(C)C)nc3cc21	-5	3.9%	7.1	2%	12%	9	22%
COc1ccc(CC(=O)OC2CCCN(C)C2)cc1 (stereo not drawn)	-8	.	0.3	15%	-5%	-4	-2%
CCCCCCNC(=O)c1cn(CC)c2cc(N3CCN(C)CC3)c(F)cc2c1=O	-2	-3.3%	-17	-10%	7%	2	21%
COc1ccc(C(=O)/C=C2\Sc3ccccc3N2C)cc1	4	.	-0.9	0%	-4%	-1	-6%[15.4 µM]
Cc1[nH]c2ccccc2c1C(c1ccccn1)N1CCC(C(N)=O)CC1 (stereo not drawn)	-3	-2.0%	3.4	63µM*	3%	27	-20%
Cc1csc(=O)n1CC(=O)OC(C)C(=O)Nc1ccc(F)c(F)c1F (stereo not drawn)	1	.	.	.	-7%	7	11%[15.4 µM]

Profiles, quoted from the list. Order of screens: CtBP-E1A inh	ClpP mod	Menin MLL FP FL	Sfp inh	gsp antagonist	TRPV1 potentiator	gsp agonist
Listed for CCCCCCCCCCCCN1[C@@H](CC(C)=O)c2cc(F)ccc2S1(=O)=O : 16	0.8%	.	.	4%	.	.
Listed for Cc1ccc2occ(C(c3nnnn3Cc3ccccc3)N3CCOCC3)c(=O)c2c1 (stereo not drawn) : 5	0.2%	5.1	-5%	-5%	-14	-12%

Additional structures follow:
SMILES	CtBP-E1A inh	ClpP mod	Menin MLL FP FL	Sfp inh	gsp antagonist	TRPV1 potentiator	gsp agonist
CCOc1cc(-c2sc(Nc3cc(C)ccc3OC)n[n+]2-c2ccccc2)ccc1OC	-18	-3.9%	.	.	?	-1	.
CCOC(=O)C1CCCN(c2c(NCCN3CCCCC3C)c(=O)c2=O)C1 (stereo not drawn)	2	-0.9%	2.9	8%	-2%	30	-54%[inhibitor]
C=CCc1cccc([C@@H]2[C@@H](C)CC[C@H]3C(=O)N4[C@@H](c5cc(OC)c(OC)c(OC)c5)c5[nH]c6ccccc6c5C[C@H]4C(=O)N23)c1	.	.	1.8	-4%	.	-12	.
CCC1CCCCN1CCCNC(=O)Cn1ncc2c([nH]c3ccc(C)cc32)c1=O (stereo not drawn)	3	3.7%	0.3	1%	7%	6	?
Cc1cccc(NC(=O)c2cc(-c3cc(C)ccc3O)n[nH]2)c1	-16	0.4%	-2.5	-3%	4%	8	-29%[15.4 µM]
O=C(c1nc(-c2ccccc2)n(-c2ccccc2)n1)N1CCN(S(=O)(=O)c2ccccc2)CC1	-5	-1.4%	-0.4	-6%	-36%	-15	-53%[inhibitor]
O=C(O)C1CCC(NSc2ccccc2[N+](=O)[O-])CC1 (stereo not drawn)	-10	0.7%	3.6	1%	0%	3	29%
COC(=O)C1=C(C)N(Cc2ccco2)C(=O)N[C@@H]1c1cccc(C(F)(F)F)c1	.	.	-3.2&3.9	-4%&-27%	.	9	.
CCc1ccc(-c2cc(C(=O)NCCCn3ccnc3)c3ccccc3n2)s1	.	.	3.4	6%	.	-9	.
CCCCOc1ccc(C(=O)N/C(=C/C=C/c2ccccc2)C(=O)NC)cc1	-17	-9.2%	0.9	?	-13%	-2	-21%
COc1cccc(-n2cc(-c3ccc(F)cc3)[nH]c2=S)c1	-21	-5.8%	9.5	?	-14%	-24	43%
CCOc1cc(NS(=O)(=O)c2ccc(OC)cc2)c(OCC)cc1NC(=O)c1ccco1	36	2.3%	2.5	7%	-3%	-8	1%
COc1cc([N+](=O)[O-])ccc1NC(=O)C[n+]1cccc(C(C)=O)c1	-11	.	1.4	-12%	.	4	34%[15.4 µM]
Cc1cccc(NC(=O)CSc2nc3c([nH]c4ccccc43)c(=O)n2C)c1	6	-17%&-8.6%	-6.4	34%[activator]	0%	-5	-9%
O=C(Nc1ccc(N2CCOCC2)c([N+](=O)[O-])c1)c1ccco1	-22	.	-1.6	25%	3%	-12	?
CCOc1cccc(-c2nnc3n2N=C(c2cc(OC)ccc2OC)CS3)c1	-12	-2.4%	-3.9	-16%	5%	22	-25%
CCCCCCn1c(SCC(=O)Nc2cc(C)on2)nc2ccccc2c1=O	7	-4.2%	0.0	-19%	3%	3	?
Cc1ccc(-c2nc3ncccn3c2Nc2ccccc2C)o1	-16	0.8%	6.3	40µM*	-1%	12	?
CN(C(=O)C1CCN(S(=O)(=O)c2ccccc2[N+](=O)[O-])CC1)C1CCCCC1	0	.	.	.	-4%	.	-9%
Cc1cccc(C)c1NC(=O)C(c1ccc(Cl)cc1Cl)N1CCCCC1 (stereo not drawn)	-3	-3.0%	4.0	-6%	3%	-19	-11%
CC(C)(C)OC(=O)NCCCCCNC(=O)c1[nH]cnc1C(=O)Nc1ccccc1	.	1.5%	.	.	-20%	-4	-20%
CCOc1ccc(NC(=O)CCC(=O)N/N=C/c2ccc([N+](=O)[O-])s2)cc1	0	?	15	18%	-3%	9	-14%
O=C(Nc1cccc(S(=O)(=O)N2CCCCC2)c1)c1cc2ccccc2o1	-14	-6.9%	.	.	?	-12	-12%
Cc1cc(Br)ccc1SCC(=O)NCC(c1ccco1)N1CCCCC1 (stereo not drawn)	7	0.5%	.	.	-3%	-2	11%
CCn1c(=O)n(CC)c2cc(N3CCCC3)c(NC(=O)c3ccccc3)cc21	-7	-0.2%	0.0	-8%	?	2	0%
COc1ccc(-c2nc(C#N)c(NC(C)C)o2)cc1	3	?	-0.3	-4%	-10%	-7	?
Cc1nc2oc3ccccc3c(=O)c2cc1C(=O)O	-3	.	8.7	14%	3%	-8	15%

Of the compounds above, 2 have a COOH group:
SMILES	CtBP-E1A inh	ClpP mod	Menin MLL FP FL	Sfp inh	gsp antagonist	TRPV1 potentiator	gsp agonist
O=C(O)C1CCC(NSc2ccccc2[N+](=O)[O-])CC1 (stereo not drawn)	-10	0.7%	3.6	1%	0%	3	29%
Cc1nc2oc3ccccc3c(=O)c2cc1C(=O)O	-3	.	8.7	14%	3%	-8	15%

Quoted at random: 2 entries already listed
SMILES	CtBP-E1A inh	ClpP mod	Menin MLL FP FL	Sfp inh	gsp antagonist	TRPV1 potentiator	gsp agonist
CCC1CCCCN1CCCNC(=O)Cn1ncc2c([nH]c3ccc(C)cc32)c1=O (stereo not drawn)	3	3.7%	0.3	1%	7%	6	?
CCOC(=O)C1CCCN(c2c(NCCN3CCCCC3C)c(=O)c2=O)C1 (stereo not drawn)	2	-0.9%	2.9	8%	-2%	30	-54%[inhibitor]
